# Source: PubChem BioAssay
# ClpP mod: qHTS Assay for Activators of ClpP. AID 651965, 2013. actives 1.9% (n = 340,000). purified B. subtilis ClpP, FRET peptide cleavage, 20 min. Potency, µM (highest dose often 57.5 µM), without a hit: top-dose activity change, negative = active. ATP-dependent Clp protease proteolytic subunit (Bacillus subtilis (strain 168)), P80244; active = well fitted falling curve with a large enough effect; inconclusive = small, poorly fitted or top-dose-only effect; inactive = no such curve, though single readings can be large or run the other way; further: potency means the concentration at half of the fitted maximal effect; the source files actives as falling curves though it sought activators and does not explain the sign; nearly all actives have a fitted effect of over 65% in size; many hits overshoot -100%
# Target sequence (P80244 whole entry, looked up): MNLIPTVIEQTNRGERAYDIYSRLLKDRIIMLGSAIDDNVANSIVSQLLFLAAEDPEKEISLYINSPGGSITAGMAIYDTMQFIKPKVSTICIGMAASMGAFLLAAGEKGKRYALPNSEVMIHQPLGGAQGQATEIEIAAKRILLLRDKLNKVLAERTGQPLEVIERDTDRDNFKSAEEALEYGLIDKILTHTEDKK
#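 Buffer: 100 mM Tris/HCl pH8, 100 mM KCl, 0.05% low protease BSA, 2.5% glycerol, 0.01% Tween-20. ClpP 10 microg/mL final; 20 min RT; delta FRET normalized to ADEP and DMSO controls.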
# Sfp PPTase inh: inhibitors of Bacillus subtilis Sfp phosphopantetheinyl transferase | Q9F4F7 | Biochemical Sfp PPTase activity, qHTS | Potency, µM, inactives show max response, negative = inhibition, actives largely listed as inhibitors | actives 3.5% (n = 310,000) | AID 1490; active means well fitted inhibition curve with a large enough effect; inconclusive means small, poorly fitted or top-dose-only effect, or another doubt; inactive means no such curve, though single readings can be large or run the other way;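 further: the enzyme is Sfp with the accession as filed and its product quenches rhodamine fluorescence; potency means the concentration at half of the fitted maximal effect; 0% = enzyme reaction without inhibitor and -100% = no enzyme wells; top concentration of the series not given in the record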
#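 With Hepes-Na pH 7.6 buffer containing 10 mM MgCl2, Sfp (15 nM) modified BHQ-2-YbbR (12.5 uM) using rhodamine-CoA (5 uM). Two reads 30 minutes apart at 525/598 nm yielded each well's rate.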
# CtBP-E1A blk: CtBP/E1A binding inhibition | AID 651724 | actives 0.49% (n = 340,000) | AlphaScreen GST-E1A/His-CtBP binding, 1536-well; active compounds read low; control for the full effect not named in the record | activity change, % (concentration not given with the values); in the data active means activity change below about -65%; inconclusive means about -30% to -65%; inactive means above about -30%; further: on the % scale 0 is the no-effect control and ±100 the full control effect
#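 Protein mix (5X: 125 nM each GST-E1A, His-CtBP) was incubated with pinned compound 2 h at 37 deg C in dark, in 50 mM Tris pH 8.0 buffer with 300 mM NaCl. Glutathione donor and nickel acceptor beads followed; AlphaScreen signal read after 1 h.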
# TRPV1 potentiator: enhances activation of the human vanilloid receptor TRPV1. actives 0.02% (n = 320,000). TRPV1-expressing cells, Fluo-8 calcium influx, capsaicin EC20 potentiation; host cell line not named in the record; control for the full effect not named in the record. potentiation, % at 8.33 µM; active means potentiation above 80%; inconclusive means 30% to 80%; inactive means below 30%; further: 0% is about no effect
# Target sequence (Q8NER1 whole entry, looked up): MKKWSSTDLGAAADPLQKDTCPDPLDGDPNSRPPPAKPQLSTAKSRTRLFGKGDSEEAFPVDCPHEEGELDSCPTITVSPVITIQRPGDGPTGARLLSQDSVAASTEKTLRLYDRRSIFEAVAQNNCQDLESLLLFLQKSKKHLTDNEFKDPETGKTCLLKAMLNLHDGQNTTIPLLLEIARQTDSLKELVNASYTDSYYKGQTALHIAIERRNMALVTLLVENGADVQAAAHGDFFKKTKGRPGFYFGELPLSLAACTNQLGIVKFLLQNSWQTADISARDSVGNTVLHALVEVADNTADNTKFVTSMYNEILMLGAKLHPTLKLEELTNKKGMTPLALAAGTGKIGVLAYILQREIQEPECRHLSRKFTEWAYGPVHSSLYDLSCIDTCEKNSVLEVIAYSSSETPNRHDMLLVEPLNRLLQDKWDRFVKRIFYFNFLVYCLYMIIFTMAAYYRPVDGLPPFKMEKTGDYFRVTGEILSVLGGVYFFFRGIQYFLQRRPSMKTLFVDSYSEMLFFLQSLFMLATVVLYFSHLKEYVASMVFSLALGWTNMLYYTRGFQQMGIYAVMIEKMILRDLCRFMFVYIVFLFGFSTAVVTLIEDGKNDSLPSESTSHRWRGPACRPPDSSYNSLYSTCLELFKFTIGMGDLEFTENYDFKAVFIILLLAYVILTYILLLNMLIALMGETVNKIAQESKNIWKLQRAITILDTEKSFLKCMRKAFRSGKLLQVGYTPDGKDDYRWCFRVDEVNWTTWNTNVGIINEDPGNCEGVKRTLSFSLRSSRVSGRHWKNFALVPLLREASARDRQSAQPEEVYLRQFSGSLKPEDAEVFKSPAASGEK
#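 Cells expressing TRPV1 were dye-loaded with Fluo-8 and read kinetically: 10 s baseline, 3 min after compound (agonist portion), then 2 min after EC20 capsaicin (allosteric enhancer portion). Calcium-bound dye fluorescence at 480/520 nm.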
# gsp ag: agonists of gsp mutant (McCune-Albright syndrome); gsp mutant cells, cAMP HTRF, 30 min; control for the full effect not named in the record; Potency, µM (series often up to 76.9 µM), for the others: at the top dose activation (cAMP increase), most hits filed as activators; actives 0.13% (n = 340,000); AID 624287; active = well fitted activation curve with a large enough effect; inconclusive = small, poorly fitted or top-dose-only effect, or another doubt; inactive = no such curve, though single readings can be large or run the other way; cell line not stated here;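 further: phosphodiesterase inhibitor Ro 20-1724 added with compounds to block cAMP breakdown; potency means the concentration at half of the fitted maximal effect; nearly all actives have a fitted effect of over 60% in size; about a fifth of the inactives were tested at one dose only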
#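 Cells in DMEM/10% FBS with G418 were pretreated with compounds in DMSO plus […] (300 uM stock) for 30 min at 37C. cAMP was measured by HTRF (cAMP-d2 plus anti-cAMP antibody-K) after 30 min at room temperature.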
# Menin MLL FP FL: displaces fluorescein MLL peptide from human menin | Fluorescence polarization, fluorescein-MLL peptide displacement from menin | FP activity change, % at 61.4 µM | 290,000 tested, under 10 active; inconclusive = falling polarisation curve, or a change in total fluorescence; inactive = total fluorescence flat and polarisation flat or rising; no compound was filed as active; the % refers to the polarisation; negative = inhibition;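 further: % of control where 0% means no effect; inhibitors lower the polarisation; unlabelled MLL peptide was the positive control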
# gsp antag: gsp mutant antagonism. Potency, µM (top dose mostly 76.9 µM), for the others: at the highest dose activity change, negative = inhibition, most hits filed as inhibitors. gsp-mutant cells, cAMP HTRF, 30 min; control for the full effect not named in the record. actives 0.4% (n = 340,000); active = falling curve of any shape with a large fitted effect; inconclusive = falling curve, mostly with a smaller effect; inactive = flat or rising curve; cell line not stated here;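 further: intracellular cAMP measured with PDE inhibitor Ro 20-1724 present during compound exposure; potency means the concentration at half of the fitted maximal effect; on the % scale 0 is the no-effect control and ±100 the full control effect; nearly all actives have a fitted effect of over 65% in size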
#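 Cells, 2000/well, grown 16–24 h in DMEM 10% FBS with 0.5 mg/ml G418, then compounds plus […] (300 uM addition stock), 30 min at 37C. cAMP read by HTRF (cAMP-d2 and anti-cAMP antibody-K in lysis buffer) after 30 min RT.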
# Active calls of the source: *; ? = inconclusive; . = no result given; & = joins results of further samples; [ ] = dose if it differs, or a comment. Compounds were not picked by outcome; about 5.3% have a hit in one of these screens.
item	SMILES	TRPV1 potentiator	ClpP mod	Sfp PPTase inh	gsp ag	gsp antag	CtBP-E1A blk	Menin MLL FP FL
1	Cc1cc(C)nc(SCC(=O)NCc2ccco2)n1	-5.9	2.2%	?	-14.9%	3.1%	6.0	1.3
2	O=c1c2ccccc2nc(-c2ccco2)n1CCc1ccc(O)cc1	-10.0	-8.7%	4.5%	-26.6%	-12.0%	.	3.2
3	C/C=C/c1ccc(OCCCCN(C)Cc2ccccc2)c(OC)c1	1.8	-1.6%	-10.6%	-46.9%[inhibitor]	14.0%	.	1.1
4	c1ccc2ncc(-n3cnnn3)cc2c1	-10.7	-0.3%	22.5%	17.6%	-0.2%	-1.5	-1.0
5	CC(C)(C)S(=O)(=O)N1C[C@H]2CC/C=C\C/C(c3ccccc3)=C\2[C@@H]1CCO	.	-0.9%	.	.	-7.7%	1.0	.
6	CC(=O)Nc1ccc(C(=O)Nc2ccc3c(c2)OCCO3)cc1	5.4	0.9%	12.4%	-14.0%	0.5%	.	1.1
7	Fc1ccccc1CSc1nc2ccccc2[nH]1	-10.2	-3.8%	4.2%	-9.9%	8.0%	-1.7	1.3
8	Cn1cc(S(=O)(=O)NC2CCCCC2)c(=O)n(C)c1=O	7.1	.	.	11.9%[15.4 µM]	10.4%	8.7	.
9	O=C(Nc1ccc(Cl)c(Cl)c1)N1N=CCC1c1ccccc1 (centres undefined)	10.6	.	0.1%	4.1%[15.4 µM]	-25.5%	9.9	-0.6
10	CC1(C)CC(=O)C2=C(C1)N(Cc1ccccc1)C(=O)C2(NC(=O)C(C)(C)C)C(F)(F)F (centres undefined)	-3.3	-2.0%	19.1%	?	-1.3%	-6.6	1.3
11	O=C(COC(=O)c1cc(Br)ccc1O)NC12CC3CC(CC(C3)C1)C2	.	.	.	-11.1%	6.2%	5.5	.
12	CC(C)NC(=O)NC(=O)COC(=O)c1ccccc1F	-1.1	-2.1%	10.5%	10.2%[15.4 µM]	7.4%	6.1	-1.1
13	Cc1nn(Cc2ccccc2Cl)c(C)c1C(=O)N1CCN(c2ccccc2)CC1	-12.5	-3.9%	6.6%	-44.9%[inhibitor]	-25.6%	-12.4	1.5
14	O=C(Nc1cccc(C(=O)N2CCCCCC2)c1)c1ccco1	1.7	-2.0%	17.9%	1.6%	-8.3%	-1.4	2.4
15	CC1(C(=O)OCC(=O)Nc2nc(-c3ccc(F)c(F)c3)cs2)CC1(Cl)Cl (centres undefined)	-28.1	0.4%	8.4%	-31.3%[inhibitor]	50.1µM*	7.0	5.6
16	COc1cc2ccccc2cc1C(=O)Nc1ccc(S(=O)(=O)Nc2cc(C)on2)cc1	4.3	-9.7%	7.4%	7.0%	-14.6%	2.9	2.5
17	CN=c1sc(C(=O)Nc2cccc(Cl)c2)cc(=O)n1C	1.6	2.5%	0.1%	-4.3%	8.5%	24.9	-7.3
18	COc1ccc(OCC(O)CN2CC(C)OC(C)C2)cc1 (centres undefined)	16.0	0.2%	13.7%	-21.1%	9.1%	.	1.1
19	CC(=O)c1cccc(NC(=O)N2C3CCCC2CC(NC(=O)C2CC2)C3)c1 (centres undefined)	-0.9	.	20.6%	-9.4%[15.4 µM]	4.1%	1.8	3.9
20	O=C(O)Cc1sc(=O)[nH]c1O	.	.	.	19.2%	10.6%	4.9	.

# Compounds from the list above containing an NH in an aromatic ring (2):
item	SMILES	TRPV1 potentiator	ClpP mod	Sfp PPTase inh	gsp ag	gsp antag	CtBP-E1A blk	Menin MLL FP FL
7	Fc1ccccc1CSc1nc2ccccc2[nH]1	-10.2	-3.8%	4.2%	-9.9%	8.0%	-1.7	1.3
20	O=C(O)Cc1sc(=O)[nH]c1O	.	.	.	19.2%	10.6%	4.9	.

# Carrying on.
item	SMILES	TRPV1 potentiator	ClpP mod	Sfp PPTase inh	gsp ag	gsp antag	CtBP-E1A blk	Menin MLL FP FL
21	C/C(=N\NC(=O)CCn1nc(C)cc1C)C(C)(C)C	-0.9	-0.5%	5.3%	-5.0%[15.4 µM]	17.7%	8.4	-0.1
22	CCc1ccc2c(c1)cc(CN(C(=S)Nc1ccccc1Cl)C1CC1)c1nnnn12	6.0	-1.1%	0.9%	-19.9%	38.4%[activator]	5.3	1.8
23	CN(C)c1ccc(P(=O)(OCc2ccccc2)C(O)c2ccc(Br)cc2)cc1 (centres undefined)	-2.3	.	3.9%	-0.7%	2.1%	1.4	3.7
24	CCOc1c(OC)cccc1C1CC(=O)Nc2cc(OC)c(OC)cc21 (centres undefined)	0.3	2.0%	20.2%	3.9%	1.5%	-0.7	3.3
25	Nc1nonc1-n1nnc(C(=O)N/N=C/c2cccc(F)c2)c1CN1CCCCCC1	.	3.0%	.	7.3%	1.9%	3.5	.
26	Cc1cccc(C(=O)Nc2cc(S(=O)(=O)N3CCOCC3)ccc2N2CCCC2)c1	5.1	1.4%	.	-11.8%[15.4 µM]	-8.1%	3.6	.
27	Cc1cc(C)cc(C(=O)NCC(=O)NCCc2c[nH]c3ccccc23)c1	11.3	.	9.8%	-3.1%[15.4 µM]	-8.1%	1.9	-15.6
28	O=C(Nc1cccc(S(=O)(=O)N2CCOCC2)c1)c1cccc(S(=O)(=O)N2CCCCC2)c1	-19.9	-1.4%	.	-57.9%[inhibitor]	0.1%	-1.7	.
29	Nc1cc(=O)[nH]c(SCCSc2cc(Cl)ccc2Cl)n1	8.1	.	-12.2%	-0.8%	10.7%	0.5	2.3
30	CN(Cc1ccccc1)C1CCNCC1	0.5	0.2%	?	3.6%[15.4 µM]	1.8%	5.7	0.3
31	O=C(CN1CCN(C(=O)C2CCC2)CC1)Nc1ccc(F)cc1	-10.7	-3.5%	.	-20.4%	8.4%	-18.9	.
32	O=C(CSc1nc2ccccc2c(=O)n1NC(=O)Cc1ccccc1)NCc1ccccc1Cl	.	-5.6%	-10.8%	10.9%	-14.1%	-11.4	-0.3
33	COc1ccc(S(=O)(=O)N2CCN(C(=O)c3cccc(Cl)c3)CC2)cc1	-0.5	-1.6%	13.0%	0.8%	-6.3%	0.0	2.0
34	COc1ccc(C(=O)Cn2c3ccccc3n3nc(CCC(=O)O)c(=O)nc23)cc1OC	2.5	?	1.0%	7.8%	-4.2%	1.6	-0.6
35	COc1ccccc1C(NC(=O)C1CCCCC1)c1c(O)ccc2ccccc12 (centres undefined)	4.9	?	7.2%	28.3%	-1.9%	10.9	2.4
36	CCCCSc1nnc(C)c(=O)[nH]1	-5.0	0.6%	14.2%	-51.4%[inhibitor]	5.9%	-3.8	-1.8
37	O=C(Oc1ccc(Cl)cc1N1C(=O)CCC1=O)c1ccco1	9.5	-1.2%	12.9%	0.9%	15.2%	7.9	0.2
38	COc1ccc(N=Cc2ccc[nH]2)cc1	5.8	-4.6%	-1.5%	-0.1%	5.3%	-13.4	5.7
39	CCn1c(=O)cc(OCC(=O)NC2CCCCC2)c2ccccc21	-4.0	-8.3%	-4.5%	?	1.2%	-8.4	2.2
40	Cc1cc(C)n(-c2ccc(N3CCOCC3)nn2)n1	15.2	-2.2%	-6.2%	-5.5%	5.9%	-6.6	6.5
41	Cc1nnc(NC(=O)CSc2nnc(-c3ccoc3C)n2CC(C)C)s1	1.9	4.0%	?	-5.9%	-7.5%	-1.4	8.1
42	O=C1N=C(N2CCN(c3ccccc3)CC2)S/C1=C\c1ccco1	6.3	-1.4%	-64.9%	-4.6%	-17.0%	-18.7	?
43	COc1cc(C(=O)O)cc(NC(=O)c2ccco2)c1OC	.	.	2.5%	-33.7%[15.4 µM]	-1.6%	9.1	4.8
44	O=C(NCCc1ccccc1)C1CCCN1S(=O)(=O)c1cccc2nsnc12 (centres undefined)	-11.9	1.1%	8.2%	14.4%	0.4%	6.8	.
45	Cc1ccnc(SCC(=O)N2CCN(C(c3ccccc3)c3ccccc3)CC2)n1	-19.9	1.1%	-6.6%	-6.3%	-27.0%	-2.4	1.6
46	CCOC(=O)C[C@H]1c2ccc(C(F)(F)F)cc2S(=O)(=O)N1C1CCCC1	.	-2.3%&3.6%	.	14.3%	7.1%	-0.2	.
47	O=C1CCCN1C(=O)CSc1nnnn1-c1cccc(F)c1	.	-1.0%	.	-0.5%[15.4 µM]	10.9%	1.3	.
48	Cc1cc(Nc2ccc(Cl)cc2)n2nnnc2n1	2.8	-15.0%	0.2%	-4.6%	-1.6%	-3.0	-0.2
49	COc1nc(Nc2ccc(OC)c(Cl)c2)nc(OC)n1	-6.5	-0.4%	7.2%	-78.4%[inhibitor]	15.0%[15.4 µM]	-12.6	3.5
50	C=CCN1C(=O)CN=C1Nc1cccc(C)c1	5.2	-0.6%	-14.5%	0.6%	?	1.0	1.9
51	COc1ccc(NC2c3ccccc3C(=O)N2c2cccnc2)cc1 (centres undefined)	7.8	-2.1%	17.5%	6.9%	-12.4%	-2.0	5.5
52	COc1ccc(N2CCC(CNS(=O)(=O)c3cccc(C(F)(F)F)c3)C2)cc1 (centres undefined)	?	-0.5%	-22.8%	-79.5%[inhibitor]	7.5%	-24.4	-0.7
53	CCN(Cc1ccncc1)C(=O)c1cccc(S(=O)(=O)N2CCOCC2)c1	-0.6	0.7%	10.5%	3.0%	7.7%	-0.5	2.3
54	COc1ccccc1-c1cc(C(=O)N2CCN(S(=O)(=O)c3ccc(C)cc3)CC2)[nH]n1	?	-0.5%	5.4%	-32.8%	-27.1%	1.5	-0.1
55	CC1=C2C(CCS2(=O)=O)CC2(C1)C(=O)OC(C)(C)OC2=O (centres undefined)	2.3	-0.1%	20.0%	-28.6%	14.2%	0.8	-3.1
56	O=C(Nc1nc(-c2cccnc2)cs1)c1ccccc1[N+](=O)[O-]	-13.6	.	7.0%	17.7%[15.4 µM]	-11.6%	14.4	-3.6
